Sa RN4220 lethal: kills Staphylococcus aureus RN4220; S. aureus RN4220 growth, OD600, 16 h; inhibition, % (test concentration not listed); 0.33% of 330,000 active;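 active means z-score of -3 or lower and OD600 up to 0.18 on both plates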;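 further: plate controls were untreated cells for no effect and reference antibiotic for full effect; stock transfer was 100 nL into about 80 µL; one replicate is shown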
PrP 5UTR inh: suppresses PrP 5' UTR mRNA reporter expression; 0.35% of 340,000 active; inhibition, % (no concentration beside the values); AID 488862; cell-based PrP 5' UTR mRNA reporter, plate reader;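 active means every replicate at 50% or more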;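 further: 0 = median of the neutral control wells; tested in H4 reporter cells; numbers are from one replicate; inactives centre near -14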
Mtb hypoxia inh: Mtb hypoxia fluorescent reporter inhibition. 0.1% of 300,000 active. M. tuberculosis hypoxia-regulated fluorescent reporter, fluorescence. fluorescence inhibition, % (test concentration not listed);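 active means 35 to 45% if threefold the growth effect, above 45% if 1.5-fold the growth effect; inactive means the rest, general growth blockers included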;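 further: wells of about 50 µL received 100 nL stock; 0% = vehicle wells and 100% = reference inhibitor wells; whole bacteria with a GFP reporter of the hypoxia response; strong numbers were not always called active; many hits fall short of the cut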
Bead autofluor: flagged as autofluorescent in microsphere protease counterscreen; fluorescence intensity (test concentration not listed); AID 624483; 3.1% of 360,000 active; compound autofluorescence counterscreen, microsphere flow cytometry; active compounds read high;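 active means at least 3 SD above the mean of all compounds, about 16000 in these data; inconclusive means too few beads counted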;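 further: 100 nL of 1 mM stock went into each well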
ugtP null kill: compounds lethal to S. aureus RN4220 ugtP deletion mutant | OD600 growth, 16 h; some inactives read as strong as hits | growth inhibition, % (test concentration not listed) | 0.54% of 330,000 active;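 active means z-score under -3 and OD600 up to 0.15 on both plates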;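 further: plate controls were untreated wells for no effect and antibiotic for full effect; wells of about 80 µL received 100 nL stock; the first replicate is given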
BJeLR lethal: kills HRASV12-expressing BJeLR cells; BJeLR (HRASV12) viability, CellTiter-Glo ATP luminescence, 48 h; reference of the scale not given here; inhibition, % (concentration not given with the values); 0.17% of 300,000 active;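 active means replicate mean above 50%; inconclusive means above 50% but judged a plate artefact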;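 further: 50 nL library stock added to about 25 µL; numbers are from one replicate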
Mtb hypoxia inh growth: second read-out of Mtb hypoxia inh, no call of its own (marks repeat the call); growth inhibition, %; measured here: M. tuberculosis growth (absorbance);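 0% = vehicle and 100% = reference antibiotic; read after six days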
* hit, by the source's call; ? = inconclusive; . = no result given.

SMILES	Sa RN4220 lethal	PrP 5UTR inh	Mtb hypoxia inh	Mtb hypoxia inh growth	Bead autofluor	ugtP null kill	BJeLR lethal
O=C(NCCCl)C1Cc2c(ccc3ccccc23)O1 (stereo not drawn)	9.6	-31.8	15.1	6.8	4175	6.7	-8.5
Cc1ccc(CCNC(=O)C2CCC(=O)N(Cc3ccccc3F)C2)o1 (stereo not drawn)	-2.1	-44.0	1.2	-0.1	?	1.3	1.7
Cc1nn(CC(=O)Nc2ccc3c(c2)OCO3)c(C)c1Cl	-4.1	-12.8	-8.6	5.7	5319	-12.4	-4.4
CCOC(=O)C1CCCN(C(=O)c2ccc(NS(=O)(=O)c3ccc4[nH]c(=O)[nH]c4c3)cc2)C1 (stereo not drawn)	-0.2	-25.3	-3.5	-2.5	?	0.4	.
CCN(CC)CCn1c2c(c(SCC(=O)Nc3ccc4c(c3)OCCO4)nc1=O)CCCC2	2.2	-39.2	8.1	4.2	5947	0.4	-4.9
CCOC(=O)c1sc(=NC(=O)COc2ccccc2)n(C)c1C	2.9	-1.4	-1.0	1.5	3800	0.2	-18.6
CCOc1cc(/C=C/C(=O)N(CC)CC(=O)NCc2cccs2)cc(Cl)c1OC	4.3	9.8	11.4	-6.0	5314	9.1	4.5
CCOc1ccc(N2C(=O)CC(NNc3nc4ccccc4s3)C2=O)cc1 (stereo not drawn)	1.2	-9.4	-5.0	-6.0	3064	3.3	9.1
CCOC(=O)C1=C(C)S/C(=C\N(C)C)C1=O	0.7	-8.7	.	.	2108	-3.0	-1.9
COc1cc2c(cc1OC)CN(C(=O)CCNC(=O)c1ccccc1Cl)CC2	6.1	-17.5	13.3	2.5	.	10.5	.
COc1ccccc1CNC(=O)C1CCCN(S(=O)(=O)c2cccc3nonc23)C1 (stereo not drawn)	0.7	-3.5	-1.4	-8.3	4310	5.2	6.5
CCCCNC(=O)c1ccccc1NC(=O)CCSc1ccccc1	-0.1	2.7	-3.6	16.1	2306	-22.1	10.1
NN=C1CCCc2c1[nH]c1ccc([N+](=O)[O-])cc21	-3.8	.	1.7	11.9	.	-7.3	.
N#Cc1ccc(CN2CCN(C(=O)C3CC(=O)N(c4ccccc4F)C3)CC2)cc1 (stereo not drawn)	2.8	-41.8	5.4	-0.4	3851	3.7	.
O=C(c1ccc2c3c(cccc13)CC2)C1CCCN(Cc2ccccn2)C1 (stereo not drawn)	3.9	-12.7	-18.6	-16.9	5159	1.0	7.1
COc1ccc(C)cc1NC(=O)C1CCCN1C(=O)OCc1ccccc1 (stereo not drawn)	5.2	-6.3	.	.	5667	-0.4	-1.4
CCOc1cc(CNCCc2c[nH]c3ccccc23)cc(Cl)c1OCC	-7.3	3.5	-4.6	7.5	2534	-13.6	0.9
COc1ccc(C(=O)O/N=C2\CCCc3nonc32)cc1	.	-14.7	.	.	2334	.	2.9
CC(=O)NCCCNc1ccc([N+](=O)[O-])cc1	6.1	-21.1	8.5	7.4	2597	16.8	-5.1
Cc1cc(=O)[nH]c(N/N=C/c2c(C)nn(-c3ccc(F)cc3)c2Cl)n1	.	-3.5	.	.	4514	.	1.2
CN(C)c1ncnc2c1NC1=C(S2)C(=NCCCC(=O)O)CC(C)(C)C1	8.6	-27.6	11.9	9.7	3605	12.0	2.1
Cc1ccc(-c2nc(C(F)(F)F)cc(=O)[nH]2)cc1	3.0	2.7	8.3	14.5	3588	6.5	-2.9
Cc1nc2cc(N)ccc2n1-c1ccccc1	1.3	-18.0	-0.2	-6.5	3387	10.4	-2.2
C[C@H](CO)N1C[C@H](C)[C@@H](CN(C)C(=O)Nc2ccc3c(c2)OCO3)Oc2c(NC(=O)Nc3ccc(C(F)(F)F)cc3)cccc2C1=O	-16.1	-4.4	5.7	4.3	3743	-4.3	.
Cc1ccc(C)c(Nc2c([N+](=O)[O-])cc(C(=O)N3CC(=O)Nc4ccccc43)cc2[N+](=O)[O-])c1	21.5	1.0	1.1	9.9	2758	-12.8	5.2
CC(=O)Nc1ccc2c(c1)C(=O)N(c1cccc(C)c1)C2=O	0.4	-13.0	6.4	1.6	5788	4.7	-4.6
COc1ccc(-c2c[n+](CC(=O)c3ccccc3)c3n2CCCCC3)cc1	3.1	-23.5	7.7	10.2	?	2.1	6.4
CN(C(=O)c1cccc(NC(=O)Cc2ccc(NC(=O)C3CCCN(S(=O)(=O)c4cccc([N+](=O)[O-])c4)C3)cc2)c1)C1CCC1 (stereo not drawn)	5.5	-30.3	-9.4	6.1	3613	-2.1	.
Cc1ccc(/C=C/C(=O)c2c(C)nc3ccccn23)cc1	9.9	-66.4	21.8	33.3	10123	-18.2	0.3
COc1ccc(-c2oc3ccccc3c2C(=O)Oc2ccccc2)cc1	.	-11.8	.	.	3960	.	-12.7
CCC(C)[C@H](NC(=O)Nc1cccc(OC)c1)C(=O)OC (stereo partly drawn)	2.1	-20.6	14.5	3.4	7892	1.8	-2.1
COc1ccc(NC(=O)C2CCOC(C)(C)C2)cc1 (stereo not drawn)	1.7	.	3.2	3.0	.	8.6	-3.8
CC1NC(=O)C(CC(N)=O)NC(=O)c2cc([N+](=O)[O-])cc(I)c2OCCC(C(=O)NC(CC(=O)O)C(N)=O)NC1=O (stereo not drawn)	5.1	.	6.0	8.5	.	3.4	.
CCOc1ccc(S(=O)(=O)Nc2ccccc2C(=O)N2CCCC2)cc1	8.5	-19.3	2.7	5.9	4530	5.8	8.2
CN(C)S(=O)(=O)c1ccc(C(=O)Nc2cc(=O)n(C)c(=O)n2C)cc1	-0.8	-43.4	-4.7	3.6	2263	4.3	-9.9
CCOC(=O)c1ccccc1NC(=O)Cn1cnc2c(cnn2-c2ccc(OC)cc2)c1=O	3.0	.	3.8	3.2	.	6.3	.
N#Cc1ccc(OCC(=O)OCC(=O)NC2CC2)cc1	3.1	-1.7	-1.7	-1.2	.	5.1	.
Cc1cc(C)nc(SCc2ccc(C(=O)NN=C3CC(C)CC(C)(C)C3)cc2)n1 (stereo not drawn)	0.5	.	-2.6	10.2	.	-6.2	.
CCOc1ccc(S(=O)(=O)N(CC(=O)NCC(F)(F)F)Cc2ccco2)cc1	6.5	-7.4	-2.8	0.1	2488	0.3	4.8
COC(OC)c1ccc(C#N)c(=O)[nH]1	0.4	-8.8	-3.2	-15.3	2249	5.2	-4.4
CCN1CCc2c(sc(NC(=O)CN3C(=O)c4ccccc4C3=O)c2C(N)=O)C1	-1.0	1.9	2.5	1.1	4615	1.2	-1.8
C/C(O)=C(\N=Nc1cc(C)ccc1O)C(N)=O	7.4	-26.2	-7.0	1.6	4868	-8.5	-2.5
COc1ccc(C)cc1NC(=O)CO/N=C(\N)CC(=O)NC1CCCCC1	4.1	-16.5	-6.2	-2.1	4039	-1.6	.
O=C(Nc1ccccc1N1CCN(c2ccccc2)CC1)c1cccc(F)c1	-6.9	-17.7	1.9	-4.0	8222	15.3	6.2
CC(=NNc1ccnc2cc(Cl)ccc12)c1ccc(O)cc1	9.9	.	-0.6	1.3	.	8.1	.
O=C(CSc1nc(C(F)(F)F)cc(=O)[nH]1)N1CCOCC1	1.7	-15.5	1.1	5.4	.	3.3	-7.6
C/C(CC(=O)Nc1ccc(Cl)cc1)=N\NC(=O)C(=O)NCCO	.	-26.3	.	.	7361	.	-6.2
CCC(C(=O)OCC(=O)Nc1ccccc1-c1ccccc1)c1ccccc1 (stereo not drawn)	5.2	-1.4	2.8	-10.7	2138	-8.1	-19.2
COc1cc(OC)cc(C(=O)OCC(=O)c2cc(C)n(CC3CCCO3)c2C)c1 (stereo not drawn)	1.3	-29.6	4.7	-2.3	2993	9.2	.
COC(CNC(=O)c1ccc(-n2c(=S)[nH]c3ccccc3c2=O)cc1)OC	4.3	34.5	17.7	18.2	4521	0.8	2.2
CN(C)S(=O)(=O)c1ccc(N2CCCC2)c(C(=O)OCC(=O)NC2CCCCC2)c1	4.4	-5.8	8.1	2.4	4227	6.1	4.1
CC(C)C12CN3CC(C(C)C)(CN(C1)C3c1ccc3c(c1)OCO3)C2=O (stereo not drawn)	-1.9	-15.1	-1.1	6.2	10699	-1.3	3.6
Cc1noc(C)c1C(=O)OCC(=O)Nc1cc(S(=O)(=O)N2CCOCC2)ccc1Cl	3.2	.	11.4	0.0	.	-0.6	7.4
N#Cc1nc(-c2ccccc2)oc1NCCCn1ccnc1	4.1	-5.5	2.0	8.1	4638	4.8	3.3
CC1(C)Cc2c(C#N)c(NCCN3CCOCC3)nc(-c3ccco3)c2CO1	3.2	-5.3	2.2	3.9	21315*	2.9	-11.3
COc1ccccc1NC(=O)N1CCc2c([nH]c3ccccc23)C1C(F)(F)F (stereo not drawn)	0.9	-6.8	12.0	7.0	5877	5.1	0.4
C=CCc1ccccc1OCC(O)CN(C(C)C)C(C)C (stereo not drawn)	-2.0	-17.7	.	.	2826	-5.1	0.2
Cc1ccc(N2CC(C(=O)OCC(=O)c3ccc([N+](=O)[O-])cc3)CC2=O)cc1 (stereo not drawn)	7.1	-3.5	21.2	6.1	2911	3.8	-1.5
O=C(NCc1ccccc1)C1Nc2ccc(OC(F)(F)F)cc2C2C=CCC12 (stereo not drawn)	0.8	-11.7	2.4	16.1	4365	-6.4	2.8
Cc1cc(C)n2cc(CSC3=NCCS3)nc2n1	1.9	-14.1	9.9	3.3	2773	5.7	5.5
Following part:
SMILES	Sa RN4220 lethal	PrP 5UTR inh	Mtb hypoxia inh	Mtb hypoxia inh growth	Bead autofluor	ugtP null kill	BJeLR lethal
CCC(=O)N1CCN(C(=O)CC)C1c1ccccc1	5.1	-21.1	.	.	3199	7.3	-6.0
Cc1ccc(NC(=O)Cn2nnc(C(=O)NCCc3ccccc3)c2N)cc1Cl	6.5	-19.1	3.8	1.5	5392	-4.0	-0.8
Cc1ccc(Nc2nc(N)nc(CN3CCN(c4ccccc4F)CC3)n2)cc1	2.2	-17.0	6.7	10.1	3836	-2.0	-11.6
Cc1cc(C)cc(NC(=S)/C(=C(\[O-])c2ccc(Cl)cc2Cl)[n+]2ccccc2)c1	0.4	2.9	3.5	19.6	3361	-3.8	1.8
CCOC(=O)c1cc(C(=O)OCC)c(=O)[nH]c1N1CCCCC1	-0.6	-18.1	4.5	-2.4	2218	6.2	2.1
CS(=O)(=O)N1CCN(CC2CC3C=CC2C3)CC1 (stereo not drawn)	0.0	-7.2	2.5	3.9	4562	5.1	0.0
O=C(Nc1ccc(CN2CCOCC2)cc1)c1ccc(Br)cc1	2.0	-59.1	-3.5	-2.5	4012	4.1	12.8
O=C(NCc1ccco1)c1cc(S(=O)(=O)N2CCCC2)ccc1Cl	0.9	9.4	-5.3	-5.3	4460	-0.4	-1.9

By substructure: those above containing fluorine
SMILES	Sa RN4220 lethal	PrP 5UTR inh	Mtb hypoxia inh	Mtb hypoxia inh growth	Bead autofluor	ugtP null kill	BJeLR lethal
Cc1ccc(CCNC(=O)C2CCC(=O)N(Cc3ccccc3F)C2)o1 (stereo not drawn)	-2.1	-44.0	1.2	-0.1	?	1.3	1.7
N#Cc1ccc(CN2CCN(C(=O)C3CC(=O)N(c4ccccc4F)C3)CC2)cc1 (stereo not drawn)	2.8	-41.8	5.4	-0.4	3851	3.7	.
Cc1cc(=O)[nH]c(N/N=C/c2c(C)nn(-c3ccc(F)cc3)c2Cl)n1	.	-3.5	.	.	4514	.	1.2
Cc1ccc(-c2nc(C(F)(F)F)cc(=O)[nH]2)cc1	3.0	2.7	8.3	14.5	3588	6.5	-2.9
C[C@H](CO)N1C[C@H](C)[C@@H](CN(C)C(=O)Nc2ccc3c(c2)OCO3)Oc2c(NC(=O)Nc3ccc(C(F)(F)F)cc3)cccc2C1=O	-16.1	-4.4	5.7	4.3	3743	-4.3	.
CCOc1ccc(S(=O)(=O)N(CC(=O)NCC(F)(F)F)Cc2ccco2)cc1	6.5	-7.4	-2.8	0.1	2488	0.3	4.8
O=C(Nc1ccccc1N1CCN(c2ccccc2)CC1)c1cccc(F)c1	-6.9	-17.7	1.9	-4.0	8222	15.3	6.2
O=C(CSc1nc(C(F)(F)F)cc(=O)[nH]1)N1CCOCC1	1.7	-15.5	1.1	5.4	.	3.3	-7.6
COc1ccccc1NC(=O)N1CCc2c([nH]c3ccccc23)C1C(F)(F)F (stereo not drawn)	0.9	-6.8	12.0	7.0	5877	5.1	0.4
O=C(NCc1ccccc1)C1Nc2ccc(OC(F)(F)F)cc2C2C=CCC12 (stereo not drawn)	0.8	-11.7	2.4	16.1	4365	-6.4	2.8
Cc1ccc(Nc2nc(N)nc(CN3CCN(c4ccccc4F)CC3)n2)cc1	2.2	-17.0	6.7	10.1	3836	-2.0	-11.6

Source: PubChem
